VDR inh = Inhibitors of the vitamin D receptor (VDR): qHTS; Vitamin D3 receptor (Homo sapiens), P11473; AID 504847, 2011; VDR-SRC2-3 peptide fluorescence polarization, 2 h; actives 0.93% (n = 400,000); Potency, µM, without a hit: max response, negative = inhibition, hits mostly inhibitors; active = well fitted inhibition curve with a large enough effect; inconclusive = small, poorly fitted or top-dose-only effect, or another doubt; inactive = no such curve, though single readings can be large or run the other way; note: series mostly up to about 120 µM
Target sequence (P11473 whole entry, looked up): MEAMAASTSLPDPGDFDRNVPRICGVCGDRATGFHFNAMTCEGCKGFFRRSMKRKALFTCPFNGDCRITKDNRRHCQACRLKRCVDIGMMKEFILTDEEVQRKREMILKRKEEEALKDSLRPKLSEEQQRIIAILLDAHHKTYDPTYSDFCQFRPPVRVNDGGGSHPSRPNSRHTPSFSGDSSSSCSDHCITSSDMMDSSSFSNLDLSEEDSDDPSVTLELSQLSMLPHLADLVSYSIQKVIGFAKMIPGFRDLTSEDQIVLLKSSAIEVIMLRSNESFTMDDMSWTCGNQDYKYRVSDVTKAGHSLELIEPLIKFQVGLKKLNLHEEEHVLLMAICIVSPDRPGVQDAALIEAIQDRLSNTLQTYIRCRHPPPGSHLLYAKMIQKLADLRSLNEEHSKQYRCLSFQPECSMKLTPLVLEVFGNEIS
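Inhibition of the VDR/SRC2-3 peptide interaction is quantified by fluorescence polarization. Compounds (23 nl, pintool) incubate with the reagents for 2 hours at ambient room temperature.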
Starred values were filed as active, the others as inactive; ? = inconclusive; & = joins results of further samples. % is set by controls: 0 for no effect and ±100 for the full control effect; potency is the fitted concentration of half-maximal effect. This is a subset; count on the stated rates, not on these rows.

cpd | Compound | VDR inh
1 | O=C(c1ccc(C(F)(F)F)cc1)C1CCCN(C(=O)CCc2cnccn2)C1 (configuration not stated) | 1%
2 | CCOC(=O)c1cc(-c2ccccc2)n(CCC(=O)NCc2ccccc2Cl)c1C | 4%
3 | Cc1ccc(O)c(NC(=O)c2nc3nc(C)cc(C(F)F)n3n2)c1 | 0%
4 | CC1(C)CN(c2ccc(CC#N)cc2)C1=O | 14%
5 | Cc1ccc(CN(CC2CCCO2)C(=O)CN2C(=O)C(C(C)C)Oc3ccccc32)o1 (configuration not stated) | ?
6 | O=C(Nc1ccc(F)cc1)C1CCN(c2nc3ccccc3nc2C(F)(F)F)CC1 | 15%
7 | CC(=O)Nc1ccc(NC(=O)C(C)OC(=O)c2cccc(S(=O)(=O)N3CCCC3)c2)cc1 (configuration not stated) | -6%
8 | COc1ccccc1C(=O)Nc1ccc(C(=O)OCc2cc(=O)n3ccsc3n2)cc1 | 18%
9 | COC(=O)c1ccc(Cl)c(NC(=O)NC23CC4CC(CC(C4)C2)C3)c1 | -10%
10 | CNC(=O)c1nn(C)c(=O)[nH]c1=O | 4%
11 | CCNC(=O)COC(=O)C1CCC(=O)N(c2ccc(OC)cc2)C1c1ccc(OC)cc1 (configuration not stated) | 13%
12 | COC(=O)c1cc(C)nc2c1C(=O)C(=O)C=C2N1CCOCC1 | ?
13 | CCOC(=O)C1=C(C2=CCCCC2)c2ccc(OC)cc2N(S(=O)(=O)C(F)(F)F)C1C(=O)OCC (configuration not stated) | -29%
14 | Nc1cc2c(cc1Cl)-c1ccc(Cl)cc1C2 | 1%
15 | O=C(COC(=O)c1ccc2c(c1)OCCO2)NC1CCCCC1 | 11%
16 | O=C(/C=C/c1ccc([N+](=O)[O-])cc1)Nc1cccc(S(=O)(=O)NC2=NCCCCC2)c1 | -16%
17 | COC(=O)c1cc2occc2n1Cc1nc(-c2cccc(Cl)c2)oc1C | 2%&-5%
18 | Cc1nc2ccccc2nc1OCC(=O)Nc1cc(C(F)(F)F)ccc1N1CCOCC1 | 11%
19 | C[C@H](NC(=O)c1nc[nH]c1C(=O)NCC(=O)OCc1ccccc1)C(=O)OC(C)(C)C | -22%
20 | COCCCNC(=O)c1cc2cc(S(=O)(=O)N3CCCCC3)ccc2n1C | 5%
21 | Cn1c(=O)oc2cc(S(=O)(=O)NCCN3CCCCCC3)ccc21 | -3%
22 | O=C1COc2ccc(S(=O)(=O)N3CCCC3)cc2N1 | -6%
23 | COc1ccc(OCC(=O)O/N=C(\N)Cc2ccc(Cl)cc2)cc1 | -4%
24 | Cc1c(Br)c(C(=O)N2CCc3ccccc32)nn1C | -5%
25 | Cc1cc(C)c(C(=O)C(C)OC(=O)c2ccc(Cl)nc2)cc1C (configuration not stated) | 6%
26 | O=C(c1cc(C(=O)NCCc2ccccc2)c(=O)n(CCc2ccccc2)c1)c1cc(Cl)ccc1O | -12%
27 | COc1ccc(CC(=O)OCC(=O)N2CCN(S(=O)(=O)c3ccc(C)cc3C)CC2)cc1 | -11%
28 | Cc1[nH]c2ccccc2c1C(=O)C(=O)NC1CC(=O)N(c2ccc(F)cc2)C1 (configuration not stated) | -21%
29 | CC(=O)Nc1ccc(-c2csc(NC(=O)c3ccc(C)o3)n2)cc1 | 14%
30 | COc1ccc(C(=O)Oc2ccc(F)cc2C(=O)/C=C/c2ccc(OC)c(OC)c2)cc1 | -30%

3 entries already listed, ordered by molar mass, smallest number first:
cpd | Compound | VDR inh
10 | CNC(=O)c1nn(C)c(=O)[nH]c1=O | 4%
24 | Cc1c(Br)c(C(=O)N2CCc3ccccc32)nn1C | -5%
18 | Cc1nc2ccccc2nc1OCC(=O)Nc1cc(C(F)(F)F)ccc1N1CCOCC1 | 11%

New compounds follow.
cpd | Compound | VDR inh
31 | O=C(c1ccc2c3c(cccc13)CC2)C1CCCN(C(=O)c2cc[n+]([O-])cc2)C1 (configuration not stated) | 10%
32 | O=C(Nc1ccccc1C(=O)N/N=C/c1ccc(O)cc1)c1ccccc1 | -19%
33 | Cc1ccc(-c2nnn(CCC(=O)NC3CCCC3)n2)cc1 | -6%
34 | O=C(NCc1ccccn1)[C@]1(C(F)(F)F)C[C@H](CCc2ccccc2)CCCO1 | -12%
35 | O=C(CC1(C(=O)O)CCCC1)N1CCOCC1 | 4%
36 | Cc1nn(-c2ccccc2)c2nc(C(F)(F)F)[nH]c(=O)c12 | -9%
37 | CS(=O)(=O)c1ccc(N2CCOCC2)c(S(C)(=O)=O)c1 | 1%
38 | Cc1oc(-c2ccccc2F)nc1CS(=O)CC(=O)NC1CC1 (configuration not stated) | -12%
39 | COc1ccc(Br)cc1C(=O)CCC(=O)OCC(=O)Nc1cc(C(N)=O)cc(C(N)=O)c1 | 9%
40 | CN1C(=O)[C@H]2[C@@H](C3CC3)N3C(=O)CN(CCO)C(=O)[C@@]3(Cc3ccccc3)[C@H]2C1=O | -8%
41 | CC(C)(CNC(=O)c1ccc(-c2ccccc2Cl)o1)N1CCOCC1 | 4%
42 | CC(C)(O)C#Cc1ccc(CN2CCN(Cc3ccsc3)C(CCO)C2)cc1 (configuration not stated) | 11%
43 | Cc1ccc(NC(=O)COc2ccc3c(c2)OCO3)c(Cl)c1 | 2%
44 | CCCCn1cnc2c(SCc3ccccc3Cl)nc(N)nc21 | 10%
45 | COc1cccc(-n2nnnc2SCC(=O)N2CCCc3ccccc32)c1 | -11%
46 | Cc1cc(C)cc(N2C(=O)CC(N(C(=O)c3ccco3)c3cc(C)cc(C)c3)C2=O)c1 (configuration not stated) | -11%
47 | O=C(NC1CCC(O)CC1)c1ccc(Br)o1 (configuration not stated) | -15%
48 | CC(C)OCC(O)CSc1ccccn1 (configuration not stated) | -4%
49 | COc1ccc(Oc2ccc(S(=O)(=O)N3CCCCC3)cc2S(=O)(=O)N2CCCCC2)cc1 | 1%
50 | O=c1oc2c3c(nn2c2ccccc12)CCCC3 | 0%
51 | Cc1cc(NC(=O)Cn2nc3c(cc2=O)CCCC3)ccc1Br | -1%
52 | Cc1sc(NC(=O)CCC(=O)O)c(C#N)c1C | 9%
53 | N#Cc1cccc(-c2cncnc2NCCc2cnc[nH]2)c1 | -7%
54 | O=C(COC(=O)c1ccccc1F)c1ccc(-n2nncc2-c2ccco2)cc1 | -10%
55 | CNS(=O)(=O)c1cccc(C(=O)OCC(=O)Nc2sc3c(c2C#N)CCCCC3)c1 | 3%
56 | O=C(NCCO)C(=O)Nc1c2c(nn1-c1ccc(F)cc1)CSC2 | -3%
57 | COc1ccc(C(=O)NCCc2ccccn2)cc1S(=O)(=O)Nc1ccc(Br)cc1 | -3%
58 | Cc1cc(Oc2ccc(C#N)cc2)nc(NCc2ccccc2)n1 | -22%
59 | O=C1CN(C(=O)Nc2ccccc2C(F)(F)F)C(c2ccccc2)c2c(sc3c2CCCC3)N1 (configuration not stated) | 3%
60 | Cn1c(=O)cc(OCCCC(=O)Nc2ccc(F)cc2)c2ccccc21 | 1%

Next part:
cpd | Compound | VDR inh
61 | Cc1cc(C)cc(NC(=O)NC(C)C2CCCO2)c1 (configuration not stated) | 8%
62 | O=C(O)c1ccc(OS(=O)(=O)c2ccc(Cl)s2)c(Cl)c1 | -17%
63 | CCc1nnc(NC(=O)CN2CCN(Cc3cccc(Cl)c3)CC2)s1 | -10%
64 | CC(=O)Nc1n[nH]c(S(=O)(=O)Cc2ccc(Cl)cc2Cl)n1 | -1%
65 | CC#CC[N+](C)(C)CCCCCCCCCCCC | -14%
66 | CN(C(=O)COC(=O)c1cccnc1Nc1cccc(C(F)(F)F)c1)C1CCS(=O)(=O)C1 (configuration not stated) | -19%
67 | Cc1ccc(S(=O)(=O)CC(O)COc2ccc(C#N)cc2)cc1 (configuration not stated) | 10%
68 | S=C(NCc1ccccc1)NCc1cccc(CNC(=S)NCc2ccccc2)c1 | ?
69 | O=S(=O)(Nc1ccc(-c2nc3ccccc3o2)cc1)c1ccccc1 | 8%
70 | COc1ccc(NC(=O)NNC(=O)c2cc3occc3n2C)c(OC)c1 | -4%
71 | CC1CCN(C(=O)COc2ccc(S(=O)(=O)N3CCCC3)cc2)CC1 | 6%
72 | CC(C)C(=O)Nc1sc2c(c1C(N)=O)CCN(Cc1ccccc1)C2 | 7%
73 | Cc1cccc(N2CCN(c3nnnn3-c3ccccc3)CC2C)c1 (configuration not stated) | 4%
74 | CCc1cccc(C)c1NC(=O)C1CCCN1C(=O)NCc1ccccc1 (configuration not stated) | ?
75 | CC(C)CC(C(=O)N1CCc2ccccc2C1)N1C(=O)c2ccccc2C1=O (configuration not stated) | -21%
76 | O=C(COc1ccc(Cl)cc1)NCc1nnc(SCC(=O)N2CCCc3ccccc32)o1 | -3%
77 | O=C(NNC1CC(=O)N(c2ccc(Cl)cc2)C1=O)c1ccccn1 (configuration not stated) | -1%
78 | O=C(CCC(=O)N1CCOc2ccccc21)NC1CCN(Cc2ccccc2)CC1 | 3%
79 | CCCCNC(=O)C1Cc2cc(S(=O)(=O)N3CCCC3)ccc2N1C(C)=O (configuration not stated) | -5%
80 | CC(=O)Nc1ccc(S(=O)(=O)NC2CC(=O)N(c3ccc(C)cc3)C2)cc1 (configuration not stated) | -5%
81 | CC(=O)c1cccc(NC(=S)N2c3ccccc3CC2C)c1 (configuration not stated) | -17%
82 | O=C(Nc1ccccc1)N1CCc2scc[n+]2-c2ccccc21 | ?
83 | CCOc1ccc(NC(=O)CCCn2c(=S)[nH]c3ccsc3c2=O)cc1 | -9%
84 | O=S(=O)(c1cccc(NC(=S)N2CCN(c3ccc(F)cc3)CC2)c1)C(F)F | -14%
85 | O=C(COc1ccc2ccccc2c1)Nc1ccccc1C(=O)O | 2%
86 | O=C(Cn1cnc2sc(-c3ccccc3)cc2c1=O)NCCc1ccccc1 | 1%
87 | Cc1ccccc1C(=O)c1ccccc1C(=O)c1ccccc1 | -19%
88 | CCn1c(=S)sc2c(=O)n(CC(=O)Nc3ccc(OC)cc3)c(C)nc21 | -9%
89 | CCOc1ccccc1N1CCN(c2nc3ccccc3nc2C(C#N)C(=O)OC(C)C)CC1 (configuration not stated) | 10%
90 | CCOC(=O)N1CCN(CC(=O)c2ccc3c(c2)CCN3C(C)=O)CC1 | -11%

Ordered by value in VDR inh (low to high): 3 from the list above.
cpd | Compound | VDR inh
90 | CCOC(=O)N1CCN(CC(=O)c2ccc3c(c2)CCN3C(C)=O)CC1 | -11%
64 | CC(=O)Nc1n[nH]c(S(=O)(=O)Cc2ccc(Cl)cc2Cl)n1 | -1%
78 | O=C(CCC(=O)N1CCOc2ccccc21)NC1CCN(Cc2ccccc2)CC1 | 3%

The results go on.
cpd | Compound | VDR inh
91 | COc1cc(C(=O)Nc2ccc(C)cc2)c(-n2cnnn2)cc1OC | 3%
92 | COc1ccc(CCn2c(=N)c(S(=O)(=O)c3ccccc3)cc3c(=O)n4ccccc4nc32)cc1 | -3%
93 | CC(=O)NCCc1nc2cc(NC(=O)COc3cccc(C)c3)ccc2n1C | 5%
94 | CCOC(=O)c1ccc(NC(=O)CN2CCN(c3ccccc3)CC2)cc1 | 1%
95 | COc1ccc2c(c1)c1c(n2C)[C@@H]2CC=C(CO)[C@@H](C1)N2C | 14%
96 | C=CCn1c(SCC(=O)Nc2cccnc2Cl)nnc1-c1ccccc1F | -30%
97 | Cc1c(-c2nc(-c3ccc4c(c3)OCO4)no2)nnn1-c1cccc(C(F)(F)F)c1 | 10%
98 | O=C(CN1CCN(S(=O)(=O)c2ccc(Cl)cc2)CC1)Nc1ccc2c(c1)CCC2 | -29%
99 | CCSc1ccccc1C(=O)Nc1ccc(S(=O)(=O)NC(C)=O)cc1 | 9%
100 | O=C(COC(=O)c1cc(F)cc(F)c1)Nc1cccnc1Cl | -4%
101 | COc1cc2nc(SCc3ccc(F)cc3)n3nc(CCn4c(C)nc5ccccc54)nc3c2cc1OC | -14%
102 | NCCC1CCCC(CCN)N1 (configuration not stated) | -14%&10%
103 | COc1ccc(NC(C)=O)cc1S(=O)(=O)NC(Cc1ccccc1)C(=O)O (configuration not stated) | -7%
104 | O=C(CO/N=C/c1cccc([N+](=O)[O-])c1)Nc1ccc2ccccc2c1 | -11%
105 | Cc1cccc(NC(=S)NC(=O)Cc2ccccc2)c1C | 21%
106 | Cc1ccc(/C(N)=N/OC(=O)N2c3ccccc3Sc3ccccc32)cc1 | 10%
107 | CCN1C[C@@H]2[C@@H]3C(=O)N(C)C(=O)[C@@H]3[C@](C)(C(=O)OC)N2C1=NC | -2%
108 | Cn1nc(C(F)(F)F)c(C#N)c1N1CCN(c2cccc(C(F)(F)F)c2)CC1 | -1%
109 | Cc1cccc(C(=O)N2CCc3cc(CNC(=O)CCc4ccccc4)ccc32)c1 | 17%
110 | N#Cc1c(N)nc2c(c1-c1ccco1)CCCCC2 | 4%
111 | CCCC(=O)NCCCc1nc2ccccc2n1C | -16%
112 | CC(C)(C)NC(=O)c1cccc2c1C(=O)c1ccccc1-2 | 4%
113 | O=C(Nc1cccc2cccnc12)c1ccccc1 | -7%
114 | C[C@@H]1CC=C[C@H]2[C@H]1C(=O)N(Cc1ccccc1)[C@H]2c1ccc(/C=C/c2ccccc2)cc1F | 13%
115 | CCOC(=O)CCCC(=O)N1CCOCCOCCN(C(=O)CCCC(=O)OCC)CCOCCOCC1 | -17%
116 | COc1cc(C(=O)OCC(C)=O)cc(NC(=O)c2ccco2)c1OC | -11%
117 | OC(CN1CCNCC1)Cn1c2ccccc2c2ccccc21 (configuration not stated) | -14%
118 | O=[N+]([O-])c1cccc(S(=O)(=O)Nc2nc3ccccc3nc2Nc2cccc(S(=O)(=O)N3CCCCC3)c2)c1 | 2%
119 | CCNc1ncc2ncc(=O)n(C[C@H]3CCCO3)c2n1 | 3%
120 | O=C1c2ccccc2C(=O)N1CC(O)COc1ccc(Br)cc1 (configuration not stated) | -10%
121 | CN(Cc1ccccc1)C(=O)c1ccc(NC(=O)Cc2ccc(NC(=O)C3CCN(C(=O)C4CCCC4)CC3)cc2)cc1 | 7%
122 | Cc1cc(NC(=O)CSc2nnc(-c3ccco3)o2)no1 | 18%
123 | CC(C)(C)NCc1cc(Br)ccc1OCc1cccs1 | 5%

Screening data deposited in PubChem BioAssay by National Center for Advancing Translational Sciences (NCATS).
